VCAM-1 imaging = inhibitors of TNFa-induced VCAM-1 surface display, imaging, high-content imaging, pooled HUVEC, TNFa stimulus (AID 456). HUVEC TNFa-induced VCAM-1 surface expression, immunofluorescence imaging; numbers were filed only for top-ranked candidate wells. one-dose inhibition, % at 5 µM; IC50 in µM for titrated hits. hit rate 0.2% among 10,000;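 active = top tenth filtered wells with inhibition above zero that passed visual or statistical confirmation; inactive = the rest, including hits rejected on review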;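 also: 0% = stimulated vehicle wells and 100% = unstimulated cells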
VCAM-1 up imaging = enhancers of VCAM-1 display on endothelial cells, imaging, high-content imaging, pooled HUVEC, TNFa stimulus (AID 457); Pooled HUVEC, TNFa-induced VCAM-1 immunofluorescence imaging; hits of this screen are not shown here; calls only; hit rate 0.2% among 10,000;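 active = a top-ranked rise in VCAM-1 staining upheld on image or statistical review; inactive = the rest, including candidates rejected on review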;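 also: compounds tested at 5 µM in the well; cells exposed to compound for 24 hours before fixing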
FPRL1 binder = human FPRL1 ligands by binding competition, primary screen, cell-based, FPR counter-screen, flow cytometry; N-formyl peptide receptor 2 (Homo sapiens), P25090; inhibition, %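 (tested at 6.7 µM)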; AID 441, 2006; hit rate 0.3% among 24,000; FPRL1-expressing cells, fluorescent ligand binding inhibition;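 also: 0% = buffer alone and 100% = receptor blocker peptide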
Target sequence (P25090 whole entry, looked up): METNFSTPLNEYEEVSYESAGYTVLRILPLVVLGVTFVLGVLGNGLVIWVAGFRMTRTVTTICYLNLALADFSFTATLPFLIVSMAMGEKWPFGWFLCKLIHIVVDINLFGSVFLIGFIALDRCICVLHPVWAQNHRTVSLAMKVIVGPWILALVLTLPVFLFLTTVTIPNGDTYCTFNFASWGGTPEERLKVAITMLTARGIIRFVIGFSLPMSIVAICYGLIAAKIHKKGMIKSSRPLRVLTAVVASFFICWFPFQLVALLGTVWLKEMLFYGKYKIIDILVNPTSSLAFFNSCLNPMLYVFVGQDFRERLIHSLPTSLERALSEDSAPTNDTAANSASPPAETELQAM
FPR ligand = human FPR ligands by binding competition, primary screen, cell-based, FPRL1 counter-screen, flow cytometry; FPR-expressing cells, fluorescent ligand binding; inhibition, %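 (tested at 6.7 µM)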; hit rate 0.74% among 24,000; AID 440, 2006;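 also: 0% = buffer wells and 100% = receptor blocker peptide wells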
Target sequence (P21462 whole entry, looked up): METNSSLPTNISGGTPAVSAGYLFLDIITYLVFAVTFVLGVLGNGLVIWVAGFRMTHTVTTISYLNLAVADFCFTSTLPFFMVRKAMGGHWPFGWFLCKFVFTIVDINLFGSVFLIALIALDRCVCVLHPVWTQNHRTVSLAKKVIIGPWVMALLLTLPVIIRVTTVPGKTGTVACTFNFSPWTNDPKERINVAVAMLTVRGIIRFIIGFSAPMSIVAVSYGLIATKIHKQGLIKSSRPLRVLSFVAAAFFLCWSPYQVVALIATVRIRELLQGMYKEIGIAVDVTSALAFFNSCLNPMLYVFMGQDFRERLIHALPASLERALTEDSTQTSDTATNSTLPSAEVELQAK
VCAM-1 down = inhibitors of TNFa-induced VCAM-1 surface display, cell-based, plate reader, pooled HUVEC, TNFa stimulus (AID 454); HUVEC TNFa-induced VCAM-1 surface immunofluorescence, plate reader; numbers were filed only for top-ranked candidate wells; hit rate 0.2% among 10,000; inhibition, % at 5 µM;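 active = compound among top-ranked inhibitors of TNF-induced VCAM-1 adhesion protein staining, with the hit upheld by image or statistical review; inactive = the rest, including hits rejected on review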;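 also: 0% = TNFa with vehicle and 100% = cells without TNFa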
Active calls of the source: *; i = inactive; / = no result given.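 The calls were made as follows, unless noted: active = mean above 30%; inconclusive = self-fluorescent; inactive = the rest.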 Only part of the results is shown; the hit share may differ from the screen's.

SMILES	VCAM-1 imaging	VCAM-1 up imaging	FPRL1 binder	FPR ligand	VCAM-1 down
CC(=O)N(c1ccc2oc(=O)sc2c1)S(=O)(=O)c1ccccc1	/	/	-1.3	3.5	/
COCC(C)NC(=O)c1noc2c1CCc1cc(OC)ccc1-2 (stereo unspecified)	/	/	-9.1	-3.1	/
C=CCn1c(NC(=O)c2ccccc2Cl)c(C#N)c2nc3ccccc3nc21	/	/	-7.4	4.2	/
COCCCn1nnnc1SCC(=O)Nc1nc(C)c(C)s1	i	i	3.5	-4.9	i
O=C(CSc1nnc(C2COc3ccccc3O2)o1)N1CCOCC1 (stereo unspecified)	/	/	7.5	-1.0	/
CCN(CC)CCNC(=O)c1nn(-c2ccc(C)cc2)c(=O)c2c1c1ccccc1n2C	/	/	-15.4	1.0	/
CCOc1cc(-c2nc(-c3ccccc3OC)no2)cc(OCC)c1OCC	i	i	-5.9	5.6	i
Cc1ccc2cc(CN(Cc3ccc4c(c3)OCO4)Cc3nnnn3Cc3ccco3)c(=O)[nH]c2c1C	i	i	-5.1	0.1	i
COc1ccc(-c2cn3cccnc3n2)cc1NC(=O)C1CCCC1	/	/	73.5*	2.3	/
CC(C)OC(=O)C(C)(C)Oc1ccc(C(=O)c2ccc(Cl)cc2)cc1	i	i	-3.6	-5.9	i
CCn1c(=O)cc(OCC(=O)NCCCN2CC(C)CC(C)C2)c2ccccc21 (stereo unspecified)	i	i	-1.8	-1.6	i
CCOc1ccc(NC(=O)N(C2CCCCC2)C2CCN(C(C)=O)CC2)cc1	/	/	-0.8	-0.9	/
Cc1ccc(CNC(=O)c2cn(C3CCCCC3)c(=O)c3c2c2ccccc2n3C)o1	/	/	12.9	15.8	/
O=C1CCCCCC1C1(O)C(=O)Nc2ccc(Br)cc21 (stereo unspecified)	/	/	-1.1	-0.1	/
CCCn1c(=O)c2[nH]c(C3CCCC3)nc2n(CCC)c1=O	i	i	2.3	1.8	i
CN/C=C1\C(=O)C(C)(C)Oc2ccc3ccc(=O)oc3c21	i	i	-2.0	9.2	i
O=C(Cn1c(=O)oc2cc(S(=O)(=O)N3CCCC3)ccc21)N1CCN(c2ccccn2)CC1	/	/	-6.0	-14.9	/
O=C(Nc1ccccc1-c1nc2ccccc2o1)c1ccc2c(c1)OCCO2	i	i	-16.1	-2.2	i
CCCSCCCNC(=O)Cn1cc2c(n1)CCC(C)C2 (stereo unspecified)	i	i	2.5	3.5	i
O=C(c1ccncc1)N1CCN(C(=O)c2cccs2)CC1	i	i	-3.0	-5.9	i
COc1ccc(OC)c(NC(=O)c2ccc(NS(=O)(=O)c3c(C)noc3C)cc2)c1	/	/	-4.4	1.9	/
COC(=O)c1ccc(C2C(C(C)=O)=C(C)Nc3ncnn32)cc1 (stereo unspecified)	/	/	5.3	0.8	/
Cc1noc(C(=O)Nc2sc3c(c2C#N)CCC3)c1Cl	/	/	1.0	3.5	/
O=C1CN(C(=O)c2ccc(Br)o2)C(c2ccc(F)cc2)c2cc(F)ccc2N1 (stereo unspecified)	/	/	-11.0	2.1	/
CC1CCCCN1CCNC(=O)CN1C(=O)COc2ccccc21 (stereo unspecified)	/	/	0.2	0.4	/
CCOC(=O)c1ccccc1NC(=O)N1CCn2c(C)ccc2C1CC (stereo unspecified)	i	i	-6.8	-4.4	i
COC(=O)c1cn(NC(=O)CC2CCCCC2)c(=O)c2ccccc12	/	/	6.6	5.0	/
COc1ccc(OC)c(NC(=O)C2CCCN(S(=O)(=O)c3cccc4cccnc34)C2)c1 (stereo unspecified)	/	/	-1.6	-2.1	/
CCOCCCn1c(=S)[nH]c2cc(C(=O)NCCN(CC)CC)ccc2c1=O	/	/	2.4	-1.4	/
CC(C)Cc1cc(C(=O)Nc2cc(Cl)ccc2Cl)no1	/	/	-0.9	-0.4	/
CCCc1nc(N2CCOCC2)c(C#N)c2c1CCCC2	i	i	0.1	0.2	i
CCCC(=O)NCCc1nc2ccccc2n1C	/	/	2.8	-0.4	/
Cc1nc2ccc(S(=O)(=O)NC(C(=O)N3CCCCCC3)C(C)C)cc2s1 (stereo unspecified)	/	/	6.3	-1.2	/
CCOC(=O)N1CCC(N(C(=O)Nc2cccc(OC)c2)C(C)CC)CC1 (stereo unspecified)	i	i	-2.2	-3.5	i
COc1ccc(OCC(=O)N2CCN(C(=O)Cc3ccccc3)CC2)cc1	i	i	-0.6	-1.1	i
CC(=O)NC(CCS(C)(=O)=O)C(=O)Nc1cc(C)on1 (stereo unspecified)	i	i	14.9	9.9	i
COc1cccc2c1OC1(C)CC2NC(=O)N1c1cccc(C(=O)Nc2ccc3c(c2)OCCO3)c1 (stereo unspecified)	/	/	6.7	8.9	/
O=C(/C=N/O)NCC1CCNCC1	/	/	-10.9	-2.3	/
CN1CCN(S(=O)(=O)c2ccc(Sc3nnc(-c4cccs4)n3-c3ccccc3)nc2)CC1	i	i	6.1	-2.5	i
CCCn1c(N2CCN(CC(=O)Nc3ccc4c(c3)OCCO4)CC2)nc2ccccc21	i	i	-4.3	-10.2	i
Cc1ccc(C(=O)NCC2CCCO2)cc1N1CCCC1=O (stereo unspecified)	/	/	-11.6	-3.5	/
Cc1nc2ccccc2c2oc(C(=O)N3CCc4ccccc4C3)cc12	/	/	-10.3	1.3	/
O=C(O)CSC1CC(=O)N(c2ccc(Cl)c(Cl)c2)C1=O (stereo unspecified)	i	i	6.2	1.8	i
CCOC(=O)C1=C(C)Nc2nnnn2C1c1ccc(OC)c(Br)c1 (stereo unspecified)	i	i	1.7	1.1	i
Cc1cc(S(=O)(=O)NC2CCCCC2)ccc1OCC(=O)NCc1ccccn1	i	i	8.2	15.9	i
Cc1ccc(C2NC(=O)NC(O)(C(F)(F)F)C2C(=O)c2ccccc2)o1 (stereo unspecified)	/	/	-4.7	3.2	/
O=C(c1cccnc1)N1CCc2ccccc21	i	i	8.8	7.0	i
CCN(CCCNC(=O)c1[nH]c(C)c(C(C)=O)c1C)c1cccc(C)c1	/	/	0.4	-6.8	/
O=C(O)c1cccc(S(=O)(=O)N2CCOCC2)c1	i	i	-6.3	0.0	i
CCOC(=O)c1cnc2nc[nH]n2c1=O	/	/	0.6	-6.5	/
Cc1cc(N2C(=O)C(=O)/C(=C(/O)c3ccccc3)C2c2cccs2)no1 (stereo unspecified)	/	/	3.3	16.4	/
Cc1ccc2c(c1)-c1c(cnn1CC(=O)N1CCCN(Cc3ccccc3F)C1)CO2	/	/	1.4	10.4	/
CC1(C)CC(=O)N(CC(=O)NC2CCCC2)c2ccccc2S1(=O)=O	/	/	1.8	-4.1	/
Cc1nc2c(=O)oc3ccccc3c2n1-c1ccccc1	i	i	-3.7	-9.2	i
COc1ccc(CCNC(=O)Cn2c(=O)n(Cc3ccco3)c(=O)c3ccc(Cl)cc32)cc1OC	/	/	-5.3	-1.8	/
CC(C)OC(=O)c1nnc(Cc2ccc(Cl)cc2)o1	/	/	-2.4	-31.4	/
Cc1oc(-c2ccc(Cl)cc2)nc1CN1CCCC(C(=O)NCc2ccco2)C1 (stereo unspecified)	/	/	6.7	4.6	/
S=c1[nH]nc(COc2ccccc2)n1C1CCCCC1	i	i	4.0	-3.0	i
CC1CCCCN1S(=O)(=O)c1coc(C(N)=O)c1 (stereo unspecified)	/	/	-3.6	1.5	/
Cc1noc(/C=C/N(C)C)c1S(=O)(=O)N1CCCC(C(=O)NCc2ccco2)C1 (stereo unspecified)	/	/	-5.3	-4.8	/

3 entries from above, arranged by count of non-hydrogen atoms, descending:
SMILES	VCAM-1 imaging	VCAM-1 up imaging	FPRL1 binder	FPR ligand	VCAM-1 down
Cc1cc(N2C(=O)C(=O)/C(=C(/O)c3ccccc3)C2c2cccs2)no1 (stereo unspecified)	/	/	3.3	16.4	/
CC1(C)CC(=O)N(CC(=O)NC2CCCC2)c2ccccc2S1(=O)=O	/	/	1.8	-4.1	/
Cc1nc2c(=O)oc3ccccc3c2n1-c1ccccc1	i	i	-3.7	-9.2	i

Next part:
SMILES	VCAM-1 imaging	VCAM-1 up imaging	FPRL1 binder	FPR ligand	VCAM-1 down
CCOc1ccc(NC(=O)CCN2CCN(c3ccccc3)CC2)cc1	i	i	1.5	3.5	i
Cc1ccc(S(=O)(=O)Cc2ccc(C(=O)N3CCN(c4ccccn4)CC3)o2)cc1	/	/	1.2	1.8	/
Cc1ccc(S(=O)(=O)Nc2cc(C(=O)O)ccc2N2CCCCC2)cc1	i	i	3.7	5.8	i
O=Nc1c2nc3ccccc3n(O)c-2c2ccccc12	/	/	-0.6	6.0	/
CCN1CCCC1CNC(=O)c1nn(-c2ccc(C)cc2)c(=O)c2c1c1ccccc1n2C (stereo unspecified)	/	/	-9.5	-14.1	/
CCOC(=O)N1CCc2c(sc3c2C(=O)NC(c2ccccc2)N3)C1 (stereo unspecified)	/	/	-2.2	-0.5	/
Cc1nccc2[nH]c(=O)c(C(=O)NC3CCN(Cc4ccccc4)CC3)cc12	/	/	-1.8	-1.7	/
CC(C)CN(C(=O)c1ccc(=O)n(C)n1)c1nc2ccccc2s1	i	i	-0.5	15.9	i
COCCCNC(=O)Cn1cc2c(n1)CCCCC2	/	/	-0.8	2.8	/
CCC(=O)N1CCc2cc(S(=O)(=O)N3CCN(c4ccccn4)CC3)ccc21	/	/	-0.3	5.3	/
CCOC(=O)C1CCCN(S(=O)(=O)c2cc(Br)cc3c2N(C(=O)C2CC2)CC3)C1 (stereo unspecified)	/	/	-3.8	8.5	/
COc1ccc(N2CCN(C(=O)CCN3C(=O)c4ccccc4S3(=O)=O)CC2)cc1	/	/	0.2	-6.8	/
CCOC(=O)C1CCCN(c2c(NCCN(C)Cc3ccccc3)c(=O)c2=O)C1 (stereo unspecified)	/	/	1.3	-2.7	/
COC(=O)c1ccc(C2c3c(n[nH]c3C)C(=O)N2c2ccc(C)cc2)cc1 (stereo unspecified)	/	/	4.6	-0.2	/
Cc1c(C(=O)O)sc2nc(C)n(C)c(=O)c12	/	/	7.5	-0.3	/
Cc1nc2cc(Cl)ccc2n1CCO	i	i	4.9	7.5	i
CN(C)C(CNC(=O)Nc1cccc(Cl)c1)c1cccnc1 (stereo unspecified)	i	i	-1.2	11.4	i
CCOC(=O)c1c(C)n(C)c2ccc(OCC(O)CN3CCCCCC3)cc12 (stereo unspecified)	/	/	20.1	-6.1	/
Cc1ccc(-c2noc(CCC(=O)NCC3CCN(Cc4cccc(C)c4)CC3)n2)cc1	i	i	1.6	4.0	i
CCC(=O)Nc1c(C(=O)Nc2cccc(OC)c2)oc2ccccc12	/	/	2.0	7.1	/
CCOc1ccc(C2CC(c3ccccc3C)n3ncnc3N2)cc1 (stereo unspecified)	/	/	1.3	-2.0	/
O=C(c1ccco1)N1CCN(/C(=N/S(=O)(=O)c2cccs2)c2ccccc2Cl)CC1	i	i	0.1	1.8	i
COC(=O)C1=C(C)NC(C)=C(C(=O)OC)C1C(=O)OC1CCCCC1=O (stereo unspecified)	i	i	6.2	8.8	i
CCOC(=O)N1CCC(N2C(=O)c3cc(C(=O)NC4CCCCC4)ccc3C2O)CC1 (stereo unspecified)	/	/	1.7	3.7	/
CN(Cc1nc(-c2ccncc2)no1)S(=O)(=O)c1ccc(Br)cc1	i	i	-1.0	1.1	i
Cc1ccc(-n2ncc3c(=O)n(CC(=O)NCC4CCCO4)cnc32)cc1 (stereo unspecified)	/	/	-4.5	-6.9	/
Cc1ccc(-n2c(N)c(C(N)=O)sc2=S)cc1	i	i	-4.6	-3.2	i
COc1cccc(CN2CCCN(S(=O)(=O)c3ccc(Br)cc3)CC2)c1	/	/	1.0	-1.9	/
c1cnn(-c2cc(N3CCOCC3)ncn2)c1	i	i	2.4	-8.1	i
CC1CCN(S(=O)(=O)c2ccc3[nH]c(=O)cc(C(=O)O)c3c2)CC1	i	i	1.4	-0.3	i
CCC(C)(C(=O)NC1CCCCC1)N(Cc1ccco1)C(=O)c1ccc2c(c1)OCO2 (stereo unspecified)	i	i	-1.3	6.4	i
CCc1ccc(N/C(SC)=C(/C#N)C(N)=O)cc1	/	/	-8.4	-11.0	/
O=C(CN1CCN(c2ncc(C(F)(F)F)cc2Cl)CC1)Nc1ccc2c(c1)OCO2	i	i	1.0	-4.3	i
CCOC(=O)COc1ccc(S(=O)(=O)Nc2ccc3c(c2)OCO3)cc1	i	i	-4.4	-4.8	i
COc1ccc(C2C(C(=O)N3CCCCC3)CCC(=O)N2c2cc(OC)c(OC)c(OC)c2)cc1 (stereo unspecified)	/	/	3.0	4.1	/
O=C(CSc1ccc2nnc(-c3ccc(F)cc3)n2n1)N1CCCCC1	/	/	1.3	-9.6	/

Assay outcomes: PubChem, several laboratories
